High-throughput results deposited in PubChem by Southern Research Institute.
Mtb growth = Mycobacterium tuberculosis H37Rv growth inhibition, cell based, confirmatory dose response (AID 1949); most inactive calls were filed without a number and no value below 0 was filed; inhibition, % at 10 µg/mL; hits with a dose series show IC50 in µg/mL; hit rate 1.6% among 100,000;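 active = confirmed in a dose series; inconclusive = about 50% or more but not retested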;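 note: bacteria grown 7 days with compound before Alamar blue readout; 0% = untreated bacteria and 100% = reference antibiotic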
An asterisk follows results filed as active; i = inactive; ? = inconclusive. Some of the compounds tested. The share of hits here may be higher or lower than overall.

entry	SMILES	Mtb growth
1	CCOC(=O)c1c(N)sc2c1CCN(Cc1ccccc1)C2	1%
2	N#C/C(=C/c1ccccc1I)c1ccc(C#N)cc1	0%
3	O=C(Nc1cccc(Cn2cccn2)c1)c1cc(-c2ccccc2)nc2ccccc12	21%
4	CC(C)C(=O)Nc1nnc(SCC(=O)c2ccc(Br)cc2)s1	i
5	Cc1cc(C)c(C#N)c(SCC(O)CSc2ccc(Cl)cc2)n1 (stereo unspecified)	6%
6	Cc1c(OCc2nnc(SCC(=O)Nc3sc4c(c3C#N)CCCC4)n2C)ccc2ccccc12	i
7	O=C(CSc1ncn(-c2ccccc2)n1)c1ccccc1	2%
8	O=C(CN(c1ccc(F)cc1)S(=O)(=O)c1ccccc1)Nc1cccc([N+](=O)[O-])c1	4%
9	Cc1cc(Nc2ccc(O)cc2)c2ccccc2n1	i
10	O=C(Nc1ccon1)c1cc(F)c(F)cc1Cl	i
11	CCNc1ccccc1C(=O)OCC(=O)c1ccc(OCc2ccccc2)cc1	i
12	CSc1ccc(S(=O)(=O)NCCC2=CCCCC2)cc1	8%
13	CC(C)(C)NC(=O)Nc1ccccc1C(N)=O	i
14	Cc1nccn1CC1CCc2c(c3ccccc3n2C)C1=O (stereo unspecified)	2%
15	O=C(NC1CCCCCC1)C1CCN(C(=O)c2ccc(F)cc2)CC1	i

Retrieved by structure from above (3):
entry	SMILES	Mtb growth
5	Cc1cc(C)c(C#N)c(SCC(O)CSc2ccc(Cl)cc2)n1 (stereo unspecified)	6%
12	CSc1ccc(S(=O)(=O)NCCC2=CCCCC2)cc1	8%
2	N#C/C(=C/c1ccccc1I)c1ccc(C#N)cc1	0%

Back to the main list with the 4 entries that preceded the break.
entry	SMILES	Mtb growth
12	CSc1ccc(S(=O)(=O)NCCC2=CCCCC2)cc1	8%
13	CC(C)(C)NC(=O)Nc1ccccc1C(N)=O	i
14	Cc1nccn1CC1CCc2c(c3ccccc3n2C)C1=O (stereo unspecified)	2%
15	O=C(NC1CCCCCC1)C1CCN(C(=O)c2ccc(F)cc2)CC1	i
16	CC(=O)Nc1ccc(NC(=O)c2ccc(COc3ccccc3Br)o2)cc1	i
17	O=C(CSc1nc2sc3c(c2c(=O)n1-c1ccccc1)CCCC3)NCc1cccs1	i
18	CCOc1cc(CN2CCN(Cc3cccnc3)CC2)ccc1OC	i
19	Fc1ccc(NC(=S)NNC(=S)Nc2ccc3c(c2)OCO3)c(F)c1	i
20	CC1(C)NC(=O)N(CCCOc2ccccc2Br)C1=O	i
21	COc1ccc(C)cc1N(CC(=O)Nc1ccc(F)c(Cl)c1)S(C)(=O)=O	1%
22	CCCOc1ccc(C(=O)Nc2ccccc2N2CCCCC2)cc1	6%
23	CCc1ccccc1NC(=O)C(CC)Oc1ccccc1 (stereo unspecified)	i
24	Cc1cccc(C)c1NC(=S)NCC(C)NC(=S)Nc1c(C)cccc1C (stereo unspecified)	3%
25	CC(C)N(C(=O)c1cc(-c2ccccc2)nc2ccccc12)C(C)C	i
26	NC(=O)CN1CCN(C2CC(=O)N(c3ccccc3)C2=O)CC1 (stereo unspecified)	i
27	Cc1ccccc1-c1nc(C#N)c(NCc2ccc(Cl)cc2)o1	i
28	O=S(=O)(NC1CCCCC1NCc1ccco1)c1ccc(Cl)cc1 (stereo unspecified)	i
29	COc1ccc(C(=O)Nc2ccc(S(=O)(=O)NC3CCCCC3)cc2)cc1OC	i
30	O=C(CSCc1ccccc1Cl)Nc1ccc(-c2nc3ccccc3[nH]2)cc1	i
31	Cc1ccc(-c2noc(CN(C(=O)COc3ccc(C(C)C)cc3)C(C)C)n2)cc1	?
32	Cc1nc(Oc2ccc3ccc(=O)oc3c2)c2c3c(sc2n1)CCCCC3	i
33	COC(=O)c1cc(-c2ccccc2)sc1NC(=S)NC(C)c1cc(OC)ccc1OC (stereo unspecified)	10%
34	CCC1=NN(C(=O)c2ccncc2)C(O)(c2ccc(Br)cc2)C1 (stereo unspecified)	?
35	Cc1ccc(C(=O)Nc2ccccc2C(=O)NC(C(=O)Nc2ccccc2)C(C)C)cc1 (stereo unspecified)	0%
36	CC(C)C(=O)N1CCN(c2ccc(NC(=O)c3ccccc3[N+](=O)[O-])cc2Cl)CC1	i
37	CC1(C)CC(=O)c2cc3c(N)c(C(=O)NCc4ccco4)sc3nc2C1	i
38	Cc1noc(C)c1C(=O)NCc1ccco1	i
39	COc1ccc(CNCCC(c2ccc(C)cc2)c2ccco2)cc1OC (stereo unspecified)	i
40	COc1cc(Nc2nc(-c3ccc(CC(C)C)cc3)cs2)c(OC)cc1Cl	i
41	COc1cccc(C(=O)N2CCN(c3ccc(Cl)cc3)CC2)c1	2%
42	COc1ccc(-c2nnc(SCC(=O)Nc3ccccc3OC)n2C2CCCCC2)cc1	i
43	Cn1nnc2cc(NC(=O)Nc3ccc(I)cc3)ccc21	i
44	CCc1ccc(OC(=O)c2ccc([N+](=O)[O-])cc2)cc1	1%
45	COc1cccc(-c2cc(C(=O)Nc3ccccc3)c3ccccc3n2)c1	i
46	CCSc1ccccc1C(=O)Nc1ccc(S(=O)(=O)Nc2nccs2)cc1	i
47	CCOC(=O)CN1C(=O)CN(c2ccc(Br)cc2)C1=O	i
48	CCOC(=O)C1=C(C)Nc2ncnn2C1c1cc(OC)ccc1OC (stereo unspecified)	i
49	Cc1cc(SCC(=O)NCc2ccco2)nc2ccccc12	i
50	O=C(CSC1CCCCC1)Nc1ccc(Cl)cc1Cl	i
51	O=C(Nc1nnc(-c2ccccc2Cl)o1)c1ccco1	1.8µg/mL*
52	CCOC(=O)N1CCN(CC(=O)c2c(C)[nH]c3ccccc23)CC1	i
53	COc1ccc(C)cc1N(CC(=O)Nc1cccc(N(C)S(C)(=O)=O)c1)S(C)(=O)=O	2%
54	Cc1ccc(S(N)(=O)=O)c(C)c1N(C)S(=O)(=O)c1ccc(F)cc1	i
55	CN1CCC(NC(=O)Cc2c(F)cccc2Cl)CC1	i
56	CCC1CCCCN1C(=O)c1cc2c(ccc3ccccc32)oc1=O (stereo unspecified)	i
57	COc1ccc(NS(=O)(=O)c2ccc(NC(=O)C3CCCCC3)cc2)cc1	i
58	Cc1ccccc1C(=O)NC(=S)Nc1ncccn1	4%
59	COc1cc(OC)cc(-c2n[nH]c(=S)n2-c2ccc(C)cc2C)c1	i
60	O=C(Nc1ccc(Br)cc1)c1ccc(NC(=O)c2ccc(Cl)cc2Cl)cc1	0%
61	COc1ccc(Cc2nnc(NC(=O)c3cc(-c4ccccc4)nc4ccccc34)s2)cc1	i
62	COc1ccc(OCC(=O)Nc2ccccc2C(=O)Nc2ccccc2)cc1	2%
63	Cc1ccc(NC(=O)c2ccoc2C)cc1C	4%
64	CC(=O)c1cccc(NC(=O)Nc2cccc([N+](=O)[O-])c2C)c1	i
65	COc1cc(C(=S)N2CCCC2)ccc1OCc1ccccc1Cl	13%
66	O=C(O)c1ccc(/C=C/c2cc(=O)c3ccccc3[nH]2)cc1	i
67	O=C(Nc1ccc(F)cc1)c1ccccc1Cl	1%
68	Cc1nc(Nc2nc(CSc3nc4ccccc4s3)cc(=O)[nH]2)nc2ccccc12	i
69	COc1ccc2cc(Br)ccc2c1CC(=O)NCC1CCCO1 (stereo unspecified)	i
70	Cc1ccccc1/C(N)=N/OC(=O)Cc1ccc(-c2ccccc2)cc1	0%
71	CCCOc1ccc(OCCSc2ncccn2)cc1	3%
72	Cc1ccc(NC(=O)CSc2nc(C(F)(F)F)cc(=O)[nH]2)cc1	i
73	Cc1cc(C)nc(NS(=O)(=O)c2ccc(NS(=O)(=O)/C=C/c3ccccc3)cc2)n1	i
74	Cc1ccc(S(=O)(=O)NC(=NCc2ccc(Cl)cc2)Nc2nc(C)cc(C)n2)cc1	3%
75	CCc1cc(=O)oc2cc(OCc3ccc(F)cc3F)ccc12	1%

Further compounds follow.
entry	SMILES	Mtb growth
76	CCc1cccc(C)c1NC(=O)CN(c1cccc(Cl)c1C)S(=O)(=O)c1ccccc1	i
77	Cn1c(=O)n(C)c2cc(S(=O)(=O)Nc3ccc(F)cc3)ccc21	1%
78	CCN(C(=O)C1CCCO1)c1ccccc1 (stereo unspecified)	i
79	COc1ccc(C(=O)Oc2ccc3c4c(c(=O)oc3c2C)CCCC4)cc1	i
80	CCOc1ccc(OCC(=O)Nc2nc3ccc(OC)cc3s2)cc1	i
81	O=C(NC(=S)Nc1ccccc1OC(F)F)c1ccccc1Br	4%
82	Cc1ccc(-n2c3c(c(=O)[nH]c2=O)C(NS(=O)(=O)c2ccc(C)cc2)(C(F)(F)F)C(=O)N3)cc1 (stereo unspecified)	i
83	CCOC(=O)Nc1ccc2c(c1)OCO2	2%
84	O=S(=O)(Nc1ccccc1)c1ccc(Cl)c(S(=O)(=O)Nc2ccccc2)c1	2%
85	c1ccc(CN2CCN(CCOc3ccccc3)CC2)cc1	i
86	CCOC(=O)c1ccc(NC(=S)NC(=O)c2cncc(Br)c2)cc1	i
87	CCOc1ccccc1OCCCCN1CC(C)OC(C)C1 (stereo unspecified)	i
88	Cc1ccc(OCCCC(=O)Nc2ccc(Cl)c(Cl)c2)cc1	17%
89	CC(=O)c1ccc2c3c(cccc13)C(=O)N(c1cc(Cl)ccc1O)C2=O	6%
90	Cc1cc(C)nc(/N=C(\N)Nc2cc(Cl)ccc2Cl)n1	12µg/mL*
91	CCC(CO)NC(=O)C(=O)NCCc1ccccc1 (stereo unspecified)	1%
92	C=CCC1c2cccc(C(=O)O)c2C(=O)N1c1ccc(F)cc1 (stereo unspecified)	i
93	CCSc1ccccc1C(=O)Nc1nncs1	i
94	COc1cc(C(=S)N2CC(C)OC(C)C2)cc(OC)c1O (stereo unspecified)	i
95	CC(C)(C)NS(=O)(=O)c1ccc(NC(=O)c2cccc(NC(=O)c3ccccc3)c2)cc1	5%
96	CCN(CC)CC(=O)Nc1ccc(-c2ccc(NC(=O)CN(CC)CC)c(OC)c2)cc1OC	?
97	N#CCSc1nc(-c2ccccc2)c2cc(Cl)ccc2n1	i
98	CC1=CCC(COC(=O)CN2CCCCC2)CC1 (stereo unspecified)	4%
99	O=S(=O)(Nc1ccc2c(c1)OCCO2)c1ccc(Oc2ccccc2)cc1	2%
100	CCc1ccccc1NC(=O)c1ccc(OCC(=O)Nc2cccc(Cl)c2C)cc1	i
101	CCOc1ccc(C2NC(C(=O)O)Cc3c2[nH]c2ccccc32)cc1 (stereo unspecified)	3%
102	Cc1c(NC(=O)CSc2ccccn2)c(=O)n(-c2ccccc2)n1C	i
103	CCc1nnc(NC(=O)CSc2nc(N)cc(N)n2)s1	i
104	O=C(Nc1ccccc1-c1nc2ccccc2s1)c1cccnc1	i
105	Cc1cc(Br)ccc1OCCCN1CCC(C)CC1	i
106	CC(NC(=O)Cn1nnc(-c2ccccc2)n1)c1ccccc1 (stereo unspecified)	i
107	Cc1cc(C)n(-c2ccc(C(=O)OC(C)C)cc2)n1	1%
108	Ic1ccc2ncnc(NCC3CCCO3)c2c1 (stereo unspecified)	1%
109	Cc1ccc(CC(=O)Nc2nnc(C(C)C)s2)cc1	i
110	COCCOC(=O)C1=C(C)N(C)C(=O)NC1c1ccc(Br)cc1 (stereo unspecified)	i
111	Cc1ccccc1OCCn1c(=N)n(CC(C)C)c2ccccc21	i
112	CC(C)c1ccccc1OCC(=O)Nc1ccc(S(N)(=O)=O)cc1	0%
113	Cc1ccc(NS(=O)(=O)c2ccc3[nH]c(=O)[nH]c3c2)cc1C	i
114	CCCCNC(=O)C1CCN(S(C)(=O)=O)CC1	0%
115	O=C1C2C3C=CC(C3)C2C(=O)N1CCN1CCN(S(=O)(=O)/C=C/c2ccccc2)CC1 (stereo unspecified)	i
116	O=C(Nc1ccc(Oc2ccc(Cl)cc2)cc1)C(Cl)(Cl)Cl	i
117	O=C(Nc1ccc(Cl)cn1)c1cccs1	3%
118	Cc1cc(C)c(OCCCCN2CCNCC2)c(C)c1	i
119	CCOc1cccc2sc(NC(=O)c3ccccc3)nc12	i
120	Cc1occc1C(=O)Nc1nnc(C2CCCCC2)s1	2%
121	CC(=O)NC(=S)Nc1ccccc1F	i
122	CCOc1ccc(NC(=O)c2ccc(NC(C)=O)cc2)cc1	i
123	COc1cc(OC)cc(-n2c(-c3ccncc3)n[nH]c2=S)c1	i
124	CCCCNS(=O)(=O)c1cc(-c2nnc(OC)c3ccccc23)ccc1C	i
125	O=S(=O)(Nc1ccc(-c2cn3ccccc3n2)cc1)c1cccc2ccccc12	i
126	NC(=O)CSc1ncnc2scc(-c3ccc(Br)cc3)c12	5%
127	COc1ccc(NC(=O)CSc2ccccc2)cc1NC(=O)c1ccco1	i
128	COC(=O)C1=CNC=C(C(=O)OC)C1c1ccc(F)cc1	i
129	C=CCSc1nc2c(c(=O)[nH]1)C(c1ccc(OC)c(O)c1)C1=C(CCCC1=O)N2 (stereo unspecified)	i
130	Cc1ccc(CN(CC(=O)NC2CCCCCC2)S(=O)(=O)c2ccccc2)cc1	2%
131	COc1ccc(C)cc1NC(=O)c1cc(C)cc(C)c1	43%
132	O=C(NC(Cc1ccccc1)C(=O)NCc1ccccn1)OCc1ccccc1 (stereo unspecified)	i
133	Nc1c(Nc2ccccc2)c2ccccc2oc1=O	i
134	COc1ccc(NC(=O)COc2ccc3ccccc3c2Br)cc1Cl	i
135	O=C1NC(Cc2c[nH]c3ccccc23)C(=O)N1c1ccc(F)cc1 (stereo unspecified)	2%

Following part.
entry	SMILES	Mtb growth
136	Cc1cc(Cl)c(S(=O)(=O)Nc2cc(S(=O)(=O)N3CCOCC3)ccc2F)cc1OCC(N)=O	i
137	Cc1ccc(C(=O)N2CCCC2)c(F)c1F	i
138	O=C(NCCCn1ccnc1)c1cc2c(s1)CCCCC2	i
139	CN(C)c1ccc(NC(=O)c2cnsn2)cc1	i
140	O=C(NCc1ccccc1)c1ccc(-c2ccccc2F)o1	i
141	O=C(c1sc2ccccc2c1Cl)n1cccn1	i
142	Cc1ccc(C)c(NC(=O)CSc2ncn[nH]2)c1	0%
143	CC(C)C(=O)Nc1cccc(C(=O)Nc2ccc(S(=O)(=O)N3CCCCC3)cc2)c1	i
